HSD17B inh = HSD17B dehydrogenase inhibition; Q99714; recombinant HSD17B10, NADH fluorescence kinetic; many of its hits are not listed in these tables; Potency, µM (series often up to 57.1 µM), without a hit: at the highest dose activity change, negative = inhibition, hits mostly inhibitors; 75,000 compounds, 7.6% hits; AID 893; active = well fitted inhibition curve with a large enough effect; inconclusive = small, poorly fitted or top-dose-only effect; inactive = no such curve, though single readings can be large or run the other way;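 note: the protocol describes HADH2 (HSD17B10) and not the HSD17B4 of the title; nearly all actives have a fitted effect of over 70% in size; most hits overshoot -100% by far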
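Enzyme plus compound, 15 min room temperature; substrate mix added (NAD+ 1 mM, beta-hydroxybutyryl-CoA 90 uM final); plates read kinetically for NADH fluorescence. HADH2 was His-tagged, E. coli-derived, 20 nM.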
An asterisk follows results filed as active; ? = inconclusive; [ ] = remark or other dose. % is set by controls: 0 for no effect and ±100 for the full control effect; potency is the fitted concentration of half-maximal effect.

SMILES	HSD17B inh
Cn1c(C(=O)N2CCN(c3ccc(Cl)cc3)CC2)cc2c(=O)n(C)c3ccccc3c21	2%
Cc1cc(C)nc(N2CCN(c3ncnc4c3oc3ccccc34)CC2)n1	15%
C[C@H](NC[C@H](O)CP(=O)(O)Cc1ccccc1)c1ccc(Cl)c(Cl)c1	-10%
COc1ccc2[nH]cc(CCNc3ncncc3-c3ccc(N(C)C)cc3)c2c1	?
COCCCN1C(=O)C(O)=C(C(C)=O)C1c1ccccn1 (centres undefined)	7%
CC(C)(NCc1ccccc1Cl)C(=O)O	-2%
Cn1c(=N)n(CC(O)c2ccco2)c2ccccc21 (centres undefined)	0%
COc1ccc(CNc2oc(C)nc2C#N)cc1	9%
CCn1c(SCC(=O)NCc2ccc3c(c2)OCO3)nnc1-c1c[nH]c2ccccc12	1%
Cc1ccc(C)c(SCC(=O)OCC(=O)c2ccco2)c1	-20%
Nc1ncnc2nc(-c3ccc(C[P+](c4ccccc4)(c4ccccc4)c4ccccc4)cc3)[nH]c12	-28%[11.4 µM]
O=C(c1cccc(F)c1)N1CCC2(CCCN(c3ccccn3)C2)CC1	?
O=C(O)c1cccc(Nc2ncnc3ccccc23)c1	0%
CC(=O)C1=C(O)C(=O)N(CCc2c[nH]c3ccccc23)C1c1cccc(O)c1 (centres undefined)	-9%
Cc1sc2ncnc(OCC(=O)N3CCN(S(=O)(=O)c4ccccc4)CC3)c2c1C	-5%

Single entries from above.
In HSD17B inh, Cn1c(C(=O)N2CCN(c3ccc(Cl)cc3)CC2)cc2c(=O)n(C)c3ccccc3c21 shows 2%
In HSD17B inh, CC(=O)C1=C(O)C(=O)N(CCc2c[nH]c3ccccc23)C1c1cccc(O)c1 (centres undefined) shows -9%

More records follow.
SMILES	HSD17B inh
CC(O)c1nc2ccccc2n1C/C=C/c1ccccc1 (centres undefined)	0%
CC(c1nnc(Sc2nnnn2-c2ccccc2)n1-c1ccc(F)cc1)N(C)C (centres undefined)	-3%
COC(=O)c1cccc(C23CC4(C2)[C@H](CN(Cc2cccnc2)[C@@H]4c2ccccc2)C3c2ccc(Cl)nc2)c1 (some centres undefined)	4%
O=c1oc(-c2cccs2)nc2sc3c(c12)CCCCC3	3.2µM*
COCCNC(=O)C(c1ccncc1)N(C(=O)Cn1nnc2ccccc21)c1ccc(OC)cc1 (centres undefined)	12%
O=C(C1=C(O)C(=O)N(CCN2CCOCC2)C1c1cccs1)c1cc2ccccc2o1 (centres undefined)	-7%
COc1ccc(-c2nc(C(N)=O)c3[nH]c(=O)n(-c4cccc(C)c4)c3n2)c(OC)c1	?
CC(=O)NC(CCS(C)(=O)=O)C(=O)Nc1cccc(Cl)c1Cl (centres undefined)	3%
Fc1ccccc1N1CCN(C2CCN(Cc3c[nH]c4ccccc34)CC2)CC1	5%
C=CCNc1nc(-c2ccccc2)nc(-n2ccnc2)n1	0%
CCOC(=O)N1CCN(S(=O)(=O)c2ccc(OC)c(Cl)c2Cl)CC1	-3%
COc1ccc(C(=O)NC2CCCCC2)cc1S(=O)(=O)N1CCCC1	0%
O=C(Nc1cccc2ccccc12)N1CCN(c2ccccc2)CC1	13µM*
O=C(Cn1cc(C(F)(F)F)ccc1=O)N1CCN(S(=O)(=O)c2ccccc2)CC1	0%
O=C1c2ccccc2C(=O)N1CCCCSc1nnc2ccccn12	87%[activator]
O=S(=O)(Nc1ncnc2c1oc1ccccc12)c1ccc(Cl)s1	3%
O=C(Cn1cc2c(n1)CCCC2)N1CCOCC1	8%
CON(C)c1nc(OCCNC(=O)COc2ccc(Cl)cc2C)nc(N(C)C)n1	0%
Cc1ccc(-c2noc(C3CCCN(C(=O)c4c(F)cccc4F)C3)n2)cc1 (centres undefined)	-8%
CC1CCCN(S(=O)(=O)c2cccc(-c3cn4cccnc4n3)c2)C1 (centres undefined)	20µM*
OCCN1CN=C(Nc2nc3ccccc3s2)NC1	11%
Nc1nc(-c2ccco2)c(-c2ccco2)s1	20µM*
O=C(CN1CCN(CC(=O)Nc2ccccn2)CC1)Nc1ccccn1	5%
Cc1ccc(C)c(N(CC(=O)NCc2ccc3c(c2)OCO3)C(=O)CCC(=O)Nc2ccccn2)c1	-11%
C[C@@H]1CC[C@H]2C(=O)N3[C@@H](CC[C@@H](C)[C@@H]3c3ccc(Br)cc3)C(=O)N2[C@@H]1c1ccc(Br)cc1	6%[11.4 µM]
COc1ccc(NC(=O)CSc2nnc(-c3cccs3)n2C)cc1OC	3%
COC(=O)c1ccc2nc(C(F)(F)F)[nH]c2c1	-4%
CCN(CC)S(=O)(=O)c1ccc(NS(=O)(=O)c2cccc(C)c2)cc1	12%
CC(C)(C)c1ccc(-c2nc(-c3ccncc3)no2)cc1	-7%
CCCc1nc2ccccc2n2cc3c(=O)n(C)c(=O)n(C)c3c12	-2%
COC(=O)C1=C(C)OC(N)=C(C#N)C1c1cc(OC)c(OCC(N)=O)cc1Cl (centres undefined)	-25%
CCCC1(C(=O)OC)C=C2C(=C(C)C(=O)C2C)CN1 (centres undefined)	?
CCOC(=O)C1=C(N)Oc2cc(C)oc(=O)c2C1c1cccnc1 (centres undefined)	12%
COc1cc(S(=O)(=O)N(Cc2ccc(C)cc2)C2CCCCC2)ccc1-n1cnnn1	4%
CCOCCCNC(=O)c1ccccc1SC	10%
CCOc1ccc(CCNC(=O)CN2CCN(Cc3ccccc3C)C2=O)cc1OCC	10%
CC(=O)OC1CC(OC(C)=O)[C@]2(C)C(CC(=O)[C@]3(C)C2CC[C@@]2(C)C(C(=O)O)OC(=O)C4OC423)C1(C)C (some centres undefined)	9%
Fc1ccc(CSc2ncnc3nc[nH]c23)cc1	7%
OC[C@@H]1O[C@@H](n2cnc3c(NC4CCCCC4)ncnc32)[C@@H](O)[C@H]1O	-3%
CSCC[C@H](NC(=O)NCc1ccccc1F)C(=O)O	-26%
CCOC(=O)c1[nH]c(C)c(/C(O)=C2\C(=O)C(=O)N(CCN(C)C)C2c2ccc(C)o2)c1C (centres undefined)	1%
CC(C)C[C@H](NC(=O)NCc1ccccc1Cl)C(=O)O	17%
Cc1sc(C(=O)NCc2cccnc2)c2nc(C)n(CC(=O)NCc3cccnc3)c(=O)c12	5%
COC(=O)CCCCCc1ccc(C(C)=O)s1	-8%
COc1ccc(-c2cn[nH]c2N)c(OC)c1	4%

Of the compounds above, 2 have a CF3 group:
SMILES	HSD17B inh
O=C(Cn1cc(C(F)(F)F)ccc1=O)N1CCN(S(=O)(=O)c2ccccc2)CC1	0%
COC(=O)c1ccc2nc(C(F)(F)F)[nH]c2c1	-4%

(list continues)
SMILES	HSD17B inh
O=C(Nc1ccc(F)cc1F)c1cc2n(n1)C(C(F)(F)F)C1CCCCC1N2 (centres undefined)	-7%
CCN1CCN(C(c2cccs2)C(C)NC(=O)CC(C)C)CC1 (centres undefined)	10%
Cn1c(N2CCC(C(N)=O)CC2)nc2c1c(=O)n(Cc1ccc(Cl)cc1)c(=O)n2C	11%
COc1ccc(NC(=O)C(CC(C)C)NC(=O)c2ccccc2C)cn1 (centres undefined)	-3%
Cc1ccc(OCCNC(=O)c2ccccc2N)cc1	25µM*
COc1ccc2[nH]c(=O)c(CN(CCO)C(=O)c3ccccc3F)cc2c1	25µM*
CCCCC(NC(C)=O)c1nc2ccccc2[nH]1 (centres undefined)	-1%
Cc1nc2ccccn2c1/C(O)=C1\C(=O)C(=O)N(CCCn2ccnc2)C1c1ccncc1 (centres undefined)	-18%
Cc1nnc(NC(=O)c2ccccc2Br)s1	-5%
O=C(O)C1CC(=O)N(c2ccc(OCc3c(F)cccc3Cl)cc2)C1 (centres undefined)	-7%
CCCCOc1ccc(S(=O)(=O)N2CCCCCC2)cc1	-9%
CCOC(=O)c1[nH]c(C)c(/C(O)=C2\C(=O)C(=O)N(CCCn3ccnc3)C2c2ccncc2)c1C (centres undefined)	-1%
O=C1c2ccccc2C(Nc2ccc3c(c2)OCCO3)N1c1ccccn1 (centres undefined)	3%
CC(C)NC(=O)c1nc2ccccc2s1	-6%
FC(F)(F)c1ccccc1-c1nccc(N2CCNCC2)n1	-1%
CC(C)(C)n1nnnc1C(c1cccs1)N1CCCc2ccccc21 (centres undefined)	-2%
COC(=O)C/C=C\[C@@H](C)[C@@H](/C=N\OCC[C@@H]1C=C[C@H](OC(C)=O)[C@H](COC(C)=O)O1)OC	2%[11.4 µM]
COCC(C)NC(=O)C1CC(c2cccc(Br)c2)=NO1 (centres undefined)	-6%
c1cc(C2OCCN2CC2COC3(CCCC3)O2)ccn1 (centres undefined)	0%
COc1ccc(C(CC(=O)O)NC(C)=O)cc1OC (centres undefined)	4%
CC(OC(=O)c1cccs1)C(=O)NCc1ccco1 (centres undefined)	1%
Cc1ccc(N2CCN(c3ccc(C)cc3)C2c2ccccn2)cc1	-4%
N#Cc1cccc(-c2nnc(SCc3ccccc3C#N)o2)c1	0%
CCc1c(C(=O)NC2CCCC2)csc1C	2%
COc1ccc2sc(N3C(=O)C4CC=C(C)CC4C3=O)nc2c1 (centres undefined)	-1%
COc1ccc(NS(=O)(=O)c2ccc(Oc3ncccn3)cc2)cc1	11%
Cc1ccc(-c2nc(CS(=O)(=O)CC(=O)N3CC(C)CC(C)C3)c(C)o2)cc1 (centres undefined)	-1%
CC(=O)N1CCCc2cc(S(=O)(=O)N3CCc4ccccc4C3)ccc21	-2%
CS(=O)(=O)N1CCN(c2ccccc2F)CC1	9%
Cc1cc(C)c2c(=O)c3c(oc2c1)C(=O)N(CCO)C3c1cccc(O)c1 (centres undefined)	-3%
COCCOC(=O)c1[nH]c2c(c1C)C(=O)CC(c1cc(OC)ccc1OC)C2 (centres undefined)	9%
CN1CCN(C(=O)c2ccc(S(=O)(=O)c3ccc(Br)cc3)cc2)CC1	11%
O=C(O)CNC(=O)[C@H]1NC(C(F)(F)F)(C(F)(F)F)OC1(C(F)(F)F)C(F)(F)F	11%[11.4 µM]
Cc1occc1C(=O)NCc1ccccc1F	-2%
Cc1cc(C)c2cc(C#N)c(SCC(=O)NCC3CCCO3)nc2c1 (centres undefined)	-26%
O=C(CC1CCCCC1)NCc1ccccn1	11%
O=C(c1c[nH]c2ccccc12)C(O)C(c1ccccc1)N1CCOCC1 (centres undefined)	-1%
CCOC(=O)c1[nH]c(C)c(C(=O)NC(C)(C)C)c1C	-2%
CCOc1ccc2[nH]c(=O)c(CN(CCO)C(c3nnnn3C3CCCCC3)C(C)C)cc2c1 (centres undefined)	?
N#Cc1ccc2ccn(CC(=O)NCc3ccccc3)c2c1	32µM*
CCOC(=O)N1CCc2c(sc(NC(=O)c3ccc(S(=O)(=O)N4CCCC4)cc3)c2C#N)C1	?
Cc1nc2c(C)cccn2c1/C(O)=C1\C(=O)C(=O)N(CCN2CCOCC2)C1c1ccncc1 (centres undefined)	-5%
COc1ccc(NC(=O)N2CCCC(c3nc(-c4ccc(C(C)C)cc4)no3)C2)cc1 (centres undefined)	-2%
CCOC(=O)C1=C(C)NC(c2ccccc2)=C(C(=O)OCc2ccc([N+](=O)[O-])cc2)[C@@H]1C#Cc1ccccc1	-6%
OC(COC1CCCCC1)CN1CCN(c2ccccc2)CC1 (centres undefined)	-16%

Arranged by molar mass (descending): part of the list above.
SMILES	HSD17B inh
O=C(O)CNC(=O)[C@H]1NC(C(F)(F)F)(C(F)(F)F)OC1(C(F)(F)F)C(F)(F)F	11%[11.4 µM]
Cc1nc2ccccn2c1/C(O)=C1\C(=O)C(=O)N(CCCn2ccnc2)C1c1ccncc1 (centres undefined)	-18%
COc1ccc(-c2nc(C(N)=O)c3[nH]c(=O)n(-c4cccc(C)c4)c3n2)c(OC)c1	?
COc1ccc2[nH]c(=O)c(CN(CCO)C(=O)c3ccccc3F)cc2c1	25µM*
COC(=O)CCCCCc1ccc(C(C)=O)s1	-8%
CCc1c(C(=O)NC2CCCC2)csc1C	2%

Back to the main list, repeating the 4 entries before the break.
SMILES	HSD17B inh
Cc1nc2c(C)cccn2c1/C(O)=C1\C(=O)C(=O)N(CCN2CCOCC2)C1c1ccncc1 (centres undefined)	-5%
COc1ccc(NC(=O)N2CCCC(c3nc(-c4ccc(C(C)C)cc4)no3)C2)cc1 (centres undefined)	-2%
CCOC(=O)C1=C(C)NC(c2ccccc2)=C(C(=O)OCc2ccc([N+](=O)[O-])cc2)[C@@H]1C#Cc1ccccc1	-6%
OC(COC1CCCCC1)CN1CCN(c2ccccc2)CC1 (centres undefined)	-16%
COc1ccc(NC(=O)CSc2nc(O)c(Cc3ccccc3)c(=O)[nH]2)cc1	-6%
O=C(Cn1cnc2c(cnn2-c2ccc(Cl)cc2)c1=O)NC1CCCCC1	-3%
COc1ccc2c(c1OC)C(=O)N(c1ccc3c(c1)CCC3)C2=O	13%
CCOC(=O)c1c(C)oc2ccc(OC(=O)N3CCOCC3)cc12	-8%
C=CCc1ccccc1OCC(O)CN1CCN(c2ccc(C)cc2)CC1 (centres undefined)	-4%
O=C(COC(=O)C1COc2ccccc2O1)NC(=O)NC1CCCC1 (centres undefined)	5%
Cc1ccc(NC(=O)CC2C(=O)NC3CCCCC3N2C(=O)c2ccc(F)cc2)cc1C (centres undefined)	-1%
CS(=O)(=O)N1CCCC(C(=O)NCCN2CCC(Cc3ccccc3)CC2)C1 (centres undefined)	-4%
Cn1c(C(=O)NCCN2CCOCC2)cc2sccc21	9%
CCCc1n[nH]c2c1C(=O)CC(C)(C)C2	-22%
O=C(NCc1ccc2c(c1)OCO2)c1cccc2c1C(=O)N(C1CCCCC1)C2	6%
O=C(c1ccc(-c2ccccc2)cc1)N1CCN(C(=O)c2ccco2)CC1	0%
c1ccc(CSCc2cn3ccsc3n2)cc1	-3%
COc1ccc(NC(=O)CS(=O)CC(=O)Nc2cc(Cl)ccc2OC)cc1 (centres undefined)	5%
Cc1ccc(CC(NC(=O)c2ccccc2)C(=O)N2CCCC2C(=O)O)cc1 (centres undefined)	-7%

The list is partial, so the mix of outcomes need not match the whole.
